# Screening results (PubChem BioAssay)
# Calb FLC: affects C. albicans growth with fluconazole; growth inhibition, % (no concentration beside the values); AID 1979; 300,000 compounds, 0.57% hits; C. albicans CaCi-2 (fluconazole-resistant clinical isolate) + fluconazole, Alamar Blue growth, 48 h;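 active = most replicates above 75%; inconclusive = exactly half above 75%; inactive = most below 75%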;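 also: all wells also contain fluconazole at 8 µg/ml as a sub-toxic cotreatment; 0% = median of DMSO wells and 100% = median of geldanamycin control wells; wells of about 8 µL received 7.5 nL stock; the first replicate is given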
# RanGTP-Imp inh: inhibitors of RanGTP-importin-beta interaction, primary screen, biochemical, FRET, CFP-Ran, YFP-importin-beta, homogeneous; cell-free CFP-Ran/YFP-importin-beta FRET ratio; inhibition, % (test concentration not listed); 300,000 compounds, 1.1% hits; AID 2216;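 active = most replicates above 15%; inconclusive = exactly half above 15%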;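 also: 0% = DMSO wells and 100% = Ran loaded with GDP instead of GTP; wells of about 40 µL received 100 nL stock; the first replicate is given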
# rRNA inh HTS: inhibits bacterial ribosomal RNA function over humanized ribosomes; E. coli WT GFP vs humanized-ribosome RFP mutants, fluorescence, 24 h; active compounds read low; DMSO median 0, no signal -100; GFP signal change (wild-type ribosome), % (test concentration not listed); 350,000 compounds, 1.6% hits; AID 720706;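 active = significant combined selectivity score with lowered wild-type GFP, culture density cut under 30%, mutant RFP and density less affected; inactive = any of these conditions unmet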; also: one replicate is shown; some compounds called inactive have numbers as strong as hits
# Beta apoptosis: blocks beta cell apoptosis. INS-1E cytokine-induced death, ATP luminescence, 48 h; percent of positive-control rescue, neutral wells zero. 300,000 compounds, 0.8% hits. AID 435005. protection from apoptosis, % (no concentration beside the values);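 active = all replicates at 75% or more, or half of them and the mean; inconclusive = half reach 75% but not the mean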;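 also: 0% = cytokine-treated negative control wells and 100% = positive control rescue; higher means more ATP so stronger rescue from cytokine killing; wells of about 40 µL received 100 nL stock; the first replicate is given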
# FGF22 binding: binders of recombinant human FGF22 by thermal shift | Q9HCT0 | SYPRO orange fluorescence; percent of sucrose octasulfate shift, DMSO zero | calls only at 9.99 µM | 340,000 compounds, 1.5% hits;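 active = melting point raised past a set limit in the mean and every replicate; inconclusive = no clear call; three in four hits are not shown here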
# Target sequence (Q9HCT0 whole entry, looked up): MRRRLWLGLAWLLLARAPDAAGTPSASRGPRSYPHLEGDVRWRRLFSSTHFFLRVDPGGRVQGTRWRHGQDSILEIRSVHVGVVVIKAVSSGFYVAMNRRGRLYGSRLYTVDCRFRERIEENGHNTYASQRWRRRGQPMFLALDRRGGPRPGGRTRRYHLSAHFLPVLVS
# T cruzi repl: T. cruzi replication inhibition. 300,000 compounds, 1.4% hits. AID 1885. inhibition, % (concentration not given with the values). T. cruzi beta-gal in NIH3T3, luminescence, 90 h;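 active = mean inhibition across valid replicates above about 55%, limit read from the data; inconclusive = mean below that limit but half or more replicates reach it; inactive = mean below it, under half of replicates reach it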;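 also: signal also drops with host cell toxicity which is not excluded here; 0% = plate median of DMSO wells and 100% = zero luminescence signal; higher percent means less beta-gal luminescence so fewer parasites; stock transfer was 50 nL into about 50 µL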
# ALR inh: human ALR oxidase inhibition via reduced H2O2 | AID 485317 | purified ALR, DTT oxidation, H2O2 HRP-luminol luminescence | P55789 | inhibition, % (test concentration not listed) | 290,000 compounds, 3.8% hits;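 active = mean and each replicate at 75% or more; inconclusive = only one of the two met; inactive = neither met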;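 also: stock transfer was 7.5 nL into about 7.5 µL; 0% = neutral wells and 100% = wells with inactivated enzyme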
# Target sequence (P55789 whole entry, looked up): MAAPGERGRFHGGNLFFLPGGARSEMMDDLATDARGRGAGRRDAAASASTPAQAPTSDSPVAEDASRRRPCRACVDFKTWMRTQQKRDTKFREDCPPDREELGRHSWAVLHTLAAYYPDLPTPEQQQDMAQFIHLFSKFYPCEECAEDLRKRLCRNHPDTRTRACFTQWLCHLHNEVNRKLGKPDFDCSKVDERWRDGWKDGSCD
# AF4-AF9 inh: blocks AF4 peptide binding to human AF9. inhibition, % at 10 µM. AID 651704. 350,000 compounds, 0.47% hits. AlphaScreen, biotin-AF4 peptide binding to FLAG-AF9;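 active = every replicate reaching a set inhibition limit, whatever the replicate mean, cut at about 25% in these data; inconclusive = mean inhibition reaches that limit but some replicates miss it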;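 also: 0% = plate neutral control median and 100% = total signal loss; the record names both 10 and 1 µM as test concentration; the first replicate is given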
# Target sequence (P42568 whole entry, looked up): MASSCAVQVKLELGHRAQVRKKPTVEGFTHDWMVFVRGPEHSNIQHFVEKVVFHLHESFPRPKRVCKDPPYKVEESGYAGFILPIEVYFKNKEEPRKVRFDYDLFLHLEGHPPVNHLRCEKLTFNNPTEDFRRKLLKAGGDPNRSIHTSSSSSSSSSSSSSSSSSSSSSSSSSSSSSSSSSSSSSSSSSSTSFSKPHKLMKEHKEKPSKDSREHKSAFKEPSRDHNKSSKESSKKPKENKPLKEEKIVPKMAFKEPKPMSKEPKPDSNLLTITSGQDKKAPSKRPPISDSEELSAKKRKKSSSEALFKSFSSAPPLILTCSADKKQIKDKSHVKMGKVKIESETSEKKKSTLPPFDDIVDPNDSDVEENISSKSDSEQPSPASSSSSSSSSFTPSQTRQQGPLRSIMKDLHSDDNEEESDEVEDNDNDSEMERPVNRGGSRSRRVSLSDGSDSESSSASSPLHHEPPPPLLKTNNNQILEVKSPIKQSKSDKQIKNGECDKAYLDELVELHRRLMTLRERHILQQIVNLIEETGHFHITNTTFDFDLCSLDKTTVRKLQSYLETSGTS
# rRNA inh HTS OD600: also measured in rRNA inh HTS; calls as there; OD600 change, %; measured here: OD600 growth;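 optical density of the mix in the first replicate; 0 = DMSO median and -100 = no signal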
# rRNA inh HTS RFP: further read-out of rRNA inh HTS, marked with its call; RFP signal change, %; measured here: RFP humanized mutant strains;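 first replicate; 0 = DMSO median and -100 = no signal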
# Starred values were filed as active, the others as inactive; i = inactive; u = inconclusive; x = not tested or not shown.
no.	molecule	Calb FLC	RanGTP-Imp inh	rRNA inh HTS	rRNA inh HTS OD600	rRNA inh HTS RFP	Beta apoptosis	FGF22 binding	T cruzi repl	ALR inh	AF4-AF9 inh
1	CCOC(=O)/C(C#N)=C\c1ccc(N2CCN(C/C=C/c3ccccc3)CC2)cc1	-2	91*	-2	-11	-6.5	2	i	15	-4	7.9
2	COc1ccc(C2CC(c3ccc4ccccc4c3)=NN2C(=O)CSc2ncccn2)cc1 (centres undefined)	3	1.3	x	x	x	34	x	33	-16	x
3	CCN1C(=O)c2ccc(C(=O)NCc3ccc4c(c3)OCO4)cc2C1=O	-9	2.9	x	x	x	-6	x	-5	-7	x
4	O=C(COC(=O)c1ccc(F)c(S(=O)(=O)N2CCOCC2)c1)NC1CC1	x	x	1	3	2.1	1	i	x	1	-6.4
5	Cn1c(Br)nc2c1c(=O)n(Cc1ccccc1)c(=O)n2C	-9	2.3	15	11	1.5	x	i	-1	3	1.8
6	CCOC(=O)Cn1c(-c2cccnc2Cl)nc2cc(C)c(C)cc21	42	0.7	x	x	x	2	x	3	1	x
7	Cc1cc(C)n2nc(C(=O)OCC(=O)N(C)C3CCS(=O)(=O)C3)nc2n1 (centres undefined)	x	x	x	x	x	-7	i	x	-1	-2.6
8	Nc1ccc(C(=O)c2ccc3c(c2)OCCO3)cc1N	14	0.1	-57	-78	-33	-4	i	27	58	-1.8
9	COc1ccc(C2(O)CCN(C(=O)c3ccc4c(c3)OCO4)CC2)cc1	-6	-0.3	x	x	x	-3	x	11	-13	x
10	C#CCOCCOCCOCCNc1nc(N2CCN(C(=O)[C@H](Cc3ccc(O)cc3)n3cc([C@@H](N)C(C)CC)nn3)CC2)nc(N2CCN(C(=O)[C@H](Cc3cc4ccccc4[nH]3)n3cc([C@@H](N)Cc4ccc(O)cc4)nn3)CC2)n1 (some centres undefined)	-3	-1.9	x	x	x	x	x	-14	-4	x
11	CCOc1ccc(-c2cnc(N)n2C)cc1	31	u	3	7	1.8	8	x	-3	-4	11
12	CSc1ccc(Cl)c(C(=O)NCC(C)C)c1	2	2.2	x	x	x	-7	x	-8	-3	x
13	CCOc1ccc(C2/C(=C(\O)c3ccc4c(c3)OCCO4)C(=O)C(=O)N2CCN2CCOCC2)cc1OCC (centres undefined)	-8	0.0	1	8	-0.1	-8	i	-9	0	1.4
14	O=c1nc(NCc2ccco2)sc2ncccc12	26	2.8	x	x	x	4	x	-8	-3	x
15	Nc1nnc(SCC(=O)Nc2ccccc2N2CCOCC2)s1	2	3.5	5	1	-4.4	-9	x	-5	-2	x
16	Cc1cc(C)nc(Sc2ccc3nnnn3n2)n1	22	3.1	3	6	5.0	-10	i	-9	-2	-0.6
17	CCOC(=O)N1CCN(C(=O)c2cc3cc(Cl)ccc3[nH]2)CC1	6	-0.1	4	5	-1.9	3	i	15	-26	-20
18	CC1(C)CC(=O)C(C(=O)c2ccccc2)C(=O)C1Cl (centres undefined)	-13	-0.4	11	8	0.6	-2	i	-2	-5	2.1
19	Nn1c(SCC(=O)Nc2ccc3c(c2)OCCO3)nncc1=O	0	6.3	-3	-4	-3.2	-8	i	-8	89*	-11
20	C/C(=N\O)C1(C)N(O)C(C)(C)C(c2ccco2)=[N+]1[O-] (centres undefined)	-11	-0.4	5	8	1.4	-3	i	-4	5	-3.4
21	CCN1C(=O)[C@H]2[C@@H](c3ccc(-c4ccccc4)cc3)N3CCC[C@@]3(C(=O)OC)[C@H]2C1=O	-14	-0.6	-10	-12	-14	-6	i	4	-4	0.4
22	CC(=O)Nc1ccc(S(=O)(=O)N2CCN(Cc3ccccn3)CC2)cc1	3	-3.7	x	x	x	-6	x	-16	-5	x
23	Cc1ccc2[nH]c(=O)c(COC(=O)C3CCCCC3)cc2c1	4	1.7	2	0	-5.3	-4	i	1	-11	9.8
24	O=C(CSc1nc2ncc(Cl)cc2[nH]1)NC1CCS(=O)(=O)C1 (centres undefined)	-2	-4.0	13	7	4.7	-2	i	-15	-8	-6.6
25	CCOC(=O)C1=C(N)OC2=C(C(=O)CC(C)(C)C2)C1c1ccco1 (centres undefined)	-7	3.8	x	x	x	-2	x	-7	10	x
26	Cn1nnc2cc(C(=O)Nc3cccnc3)ccc21	1	-3.1	x	x	x	8	x	5	-5	x
27	COc1cc2c(cc1OC)C(C1C(=O)CC(C)CC1=O)N(C(=O)CCl)CC2 (centres undefined)	-1	2.6	19	10	0.0	0	i	-11	2	0.4
28	CC1CCCCC1NC(=O)C1CCC(CNS(=O)(=O)c2ccccc2)CC1 (centres undefined)	8	3.2	8	11	-0.8	0	i	-7	-5	-1.8
29	Cc1cc(C)c2c(N)c(C(=O)Nc3ccc(F)cc3)sc2n1	2	2.2	8	2	-0.5	x	i	6	-1	-0.9
30	CCOC(=O)N1CCC(NC(=O)c2cccc3c2C(=O)N(CCOC)C3)CC1	-5	0.8	1	2	-0.7	-2	i	-3	-9	3.0
31	O=C1c2ccccc2-n2c1nc1ccccc1c2=O	-1	-2.5	x	x	x	8	i	-2	x	-0.6
32	O=C(COc1cccnc1[N+](=O)[O-])N1CCc2ccccc21	1	2.7	3	4	2.8	-1	i	3	-9	-1.1
33	Cc1nnc(SCC(=O)NNC(=O)c2ccccc2)n1N	x	x	17	16	-2.0	-1	i	x	-6	-0.3
34	COc1ccc(N(C)S(=O)(=O)c2ccc3c(c2)NC(=O)CC(=O)N3)c(OC)c1	-12	0.1	0	0	-0.5	-1	i	-12	-22	-2.6
35	CCN(CC)C(=O)C1CC(=O)N(c2ccc(OC)cc2)C1c1ccc(OC)cc1 (centres undefined)	28	-0.5	x	x	x	1	x	4	-11	x
36	Cc1c(NC(=O)c2cccc(NC(=O)c3ccco3)c2)cccc1C(=O)O	-12	-2.0	14	12	2.2	-8	x	-6	-9	x
37	Cc1cc(C(=O)OCC(=O)N2CC(=O)Nc3ccccc32)no1	-1	1.4	x	x	x	-5	x	-3	1	x
38	CCOC(=O)/C(=N\Nc1ccccc1Cl)N1CCN(C)CC1	-3	5.7	-4	4	-3.7	-4	i	24	98*	11
39	O=c1[nH]c(CSc2nnc3ccccn23)nc2cc(C(F)(F)F)ccc12	-9	0.4	4	3	1.8	-5	i	-18	0	-0.4
40	COC(=O)c1ccccc1NC(=O)CSc1nncn1-c1ccccn1	-9	-4.0	-2	-9	2.2	2	i	-1	-1	-0.8
41	COc1ccc(NC(=O)CCc2nc(-c3ccc(C)cc3)no2)c(OC)c1	-4	-4.6	x	x	x	4	x	1	0	x
42	Cc1ccccc1C(=O)N1CCC(C(=O)Nc2ccccc2N2CCCC2)CC1	5	6.8	2	-1	-0.2	-5	i	-3	-27	-40
43	NC(=O)C1CC(=O)N(c2ccc(OCC(=O)Nc3cccc(C(F)(F)F)c3)cc2)C1 (centres undefined)	-1	0.8	x	x	x	-2	x	-9	-1	x
44	COc1ccccc1CNC(=O)c1nccnc1CO	0	-1.5	12	7	2.5	1	i	2	-18	1.9
45	Cc1ccc(NC(=O)c2ccco2)c(NC(=O)c2ccc(Cl)cc2)c1	0	-2.0	4	5	2.3	-1	i	-5	-6	-0.6
46	O=C(CSc1nnc(Nc2ccccc2)s1)Nc1ccc(S(=O)(=O)N2CCOCC2)cc1	3	0.9	x	x	x	-9	x	-11	-1	x
47	O=C(O)c1cccc(Nc2nc3ccccc3nc2NS(=O)(=O)c2ccccc2)c1	x	x	13	-9	7.7	-1	x	x	11	-2.0
48	CCC1CCCCN1C(=O)CSc1nnc(CNC(=O)c2c(F)cccc2Cl)o1 (centres undefined)	-2	-0.1	1	8	-0.9	-8	i	-14	-2	-2.9
49	C/C(CC(=O)NCCCN1CCOCC1)=N\NC(=O)COc1cccc2ccccc12	19	3.5	1	11	5.3	0	i	-3	x	0.5
50	CCOc1ccc(NC(=O)c2cn(-c3ccc(OCC)cc3)c(=O)c3cc(OC)c(OC)cc23)cc1	86*	-0.8	x	x	x	1	x	u	0	x
51	CC1(C)CC(=O)C2=C(C1)N(c1ccc(F)cc1)C(=O)C2(NC(=O)c1ccccc1F)C(F)(F)F (centres undefined)	-12	-0.2	0	6	2.1	-3	i	-2	1	-22
52	Nc1ccc(Cl)c(S(=O)(=O)Nc2ccc(Cl)cc2)c1	8	3.2	2	2	7.5	0	i	64*	-17	-1.5
53	Cc1cc(=O)oc2cc(OCC(=O)N3c4ccccc4CC3C)ccc12 (centres undefined)	-6	-1.6	6	11	-2.5	9	x	-11	1	x
54	CCCCc1ccc(NC(=S)NCc2ccc(OC)cc2)cc1	-27	2.3	-23	-24	-0.6	-10	i	47	0	-0.1
55	COc1cccc(C2=NC(C)(C)NC(c3ccccc3O)C2)c1 (centres undefined)	-2	30	x	x	x	3	x	x	52	x
56	O=C(COC(=O)C12CC3CC(CC(C3)C1)C2)Nc1nc2c(F)c(F)c(F)cc2s1	3	-1.2	x	x	x	x	i	6	13	2.6
57	CCCn1c(CN2CCN(C(=O)OCC)CC2)nc2cc(NC(=O)CC)ccc21	-3	2.2	9	9	-0.9	24	i	-1	x	-1.1
58	COc1ccc(/C(C)=N/NC(=S)NCc2ccco2)cc1	14	2.5	-25	-27	-3.6	2	i	5	13	0.3
59	CC(C)COc1ccc2[nH]c3c(c2c1)CCCC3=O	23	3.3	x	x	x	-1	x	4	-2	x
60	CCOC(=O)c1ccc(N2C(=O)c3n[nH]c(C)c3C2c2ccc(OC)c(OC)c2)cc1 (centres undefined)	18	-1.5	x	x	x	4	x	22	-2	x

# The list continues.
no.	molecule	Calb FLC	RanGTP-Imp inh	rRNA inh HTS	rRNA inh HTS OD600	rRNA inh HTS RFP	Beta apoptosis	FGF22 binding	T cruzi repl	ALR inh	AF4-AF9 inh
61	CCc1ccc(NC(=O)CCc2nc3sc4c(c3c(=O)[nH]2)CCCC4)cc1	7	1.6	-2	-6	2.4	1	i	6	5	-2.1
62	COc1cc(OC)cc(C(=O)N[C@H](C(=O)OCC(=O)Nc2ccc(OC)c(OC)c2)C(C)C)c1	43	-1.5	-13	-22	-6.2	-1	i	1	-4	2.2
63	Cc1ccc(C(=O)NNC(=O)C2CCN(c3nccc(C)n3)CC2)cc1	2	9.3	x	x	x	4	x	-8	-3	x
64	COc1ccc(S(=O)(=O)NCc2ccccc2)cc1	-3	0.3	x	x	x	-4	x	-14	4	x
65	O=C(Nc1nnc2n1CCS2)c1ccco1	13	2.3	5	6	-3.2	-5	i	-2	-1	3.8
66	COc1ccc(-c2nnc(SCC(=O)N/N=C/c3ccccc3C(=O)O)n2-c2ccc(Cl)cc2)cc1	4	0.2	14	7	-1.0	-7	i	-3	4	0.7
67	O=C(c1cc(-c2cccs2)nn1-c1ccccc1)N1CCN(S(=O)(=O)c2ccccc2)CC1	12	-4.0	6	-1	4.6	8	i	13	-4	0.0

# Some of the compounds tested (hit frequency here may not be typical).
